Assay outcomes deposited in PubChem by The Scripps Research Institute Molecular Screening Center.
OX1R antag: antagonists of human orexin 1 receptor (OX1R); Orexin/Hypocretin receptor type 1 (Homo sapiens), O43613; OX1R-expressing cells, FRET antagonist read-out; inhibition, % at 6.6 µM; 330,000 compounds, 1.8% hits; AID 485270, 2010; in the data active means inhibition mostly above about 38%, no sharp cut-off; inactive means mostly below about 40%;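 further: 0% = agonist challenge alone and 100% = reference antagonist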
Target sequence (O43613 whole entry, looked up): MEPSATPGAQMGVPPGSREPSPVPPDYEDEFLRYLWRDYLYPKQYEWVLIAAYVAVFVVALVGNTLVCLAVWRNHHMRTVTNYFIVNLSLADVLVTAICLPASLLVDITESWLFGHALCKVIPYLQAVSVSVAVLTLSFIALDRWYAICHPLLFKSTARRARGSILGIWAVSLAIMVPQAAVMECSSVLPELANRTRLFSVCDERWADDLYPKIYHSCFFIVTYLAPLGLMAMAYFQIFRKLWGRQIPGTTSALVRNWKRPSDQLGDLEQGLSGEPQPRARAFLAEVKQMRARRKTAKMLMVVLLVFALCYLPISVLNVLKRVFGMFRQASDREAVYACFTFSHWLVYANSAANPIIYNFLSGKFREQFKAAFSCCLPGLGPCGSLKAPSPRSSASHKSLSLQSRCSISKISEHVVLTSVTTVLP
* hit, by the source's call; & = joins results of further samples. Only part of the results is shown; most or all hits stand in other tables.

structure	OX1R antag
COC(=O)c1ccc2c(=O)n(-c3ccccc3F)c(=S)[nH]c2c1	29.9
O=c1[nH]c2ccccc2nc1C(Cl)c1ccccc1 (stereo not drawn)	11.6
COCCNC(=O)c1ccc2c(c1)nc(C)n2-c1cc(OC)c(OC)c(OC)c1	15.9
c1ccc(Cn2nnnc2C(c2cccs2)N2CCSCC2)cc1 (stereo not drawn)	-3.0
O=C(O)CNC(=O)c1ccc(S(=O)(=O)N2CCOCC2)cc1	13.4
CCCCn1c(N)c(N2CCOCC2)c(=O)n(CC(=O)NCCc2ccccc2)c1=O	12.0
CC(=O)N1N=C(c2cccs2)CC1c1cccs1 (stereo not drawn)	19.3
CN(C)S(=O)(=O)c1ccc(Cl)c(NC(=O)CN2CCNC(=O)C2)c1	-6.2
Cc1cc(NC(=O)c2cccs2)n(-c2ccccc2)n1	11.1
CCCCC(=O)Nc1ccc(N2CCN(S(C)(=O)=O)CC2)cc1	5.3
COc1cccc(C(=O)N(CN2CCCC2=O)c2cccc(Cl)c2)c1	4.4
CCn1cc(CN2CCC(C(=O)Nc3cccc(-c4cccc(OC)c4)c3)CC2)cn1	13.8
COc1ccc(S(=O)(=O)N2CCCC2CNC(=O)C(=O)Nc2cccc(F)c2)cc1 (stereo not drawn)	21.6
COc1ccc(CCN2C(=O)C3C4CC(C5C(C(N)=O)=NOC45)C3C2=O)cc1OC (stereo not drawn)	10.0
CCCCC(=O)NC1(C(F)(F)F)C(=O)Nc2c1c(=O)n(C)c(=O)n2C (stereo not drawn)	23.6
Cc1ccc(C=C2C(=O)c3ccccc3C2=O)s1	21.2
COCCN1C(=O)C(CC(=O)Nc2ccc(C(=O)O)cc2)SC1=Nc1ccccc1 (stereo not drawn)	13.8
CC(Nc1cc(N2CCCC2)ccc1[N+](=O)[O-])c1ccccc1 (stereo not drawn)	15.6
CC(C)CNC(=O)c1cc(-c2ccco2)on1	6.7
Cc1[nH]n2c(=O)c3c(nc2c1-c1cccc2ccccc12)CCC3	2.9
CCN(CC)CCNC(=O)CCn1nc(-c2ccc(Cl)cc2)ccc1=O	13.1
CCOc1ccc2[nH]c(=O)c(CN(CCO)Cc3nnnn3CCc3ccccc3)cc2c1	15.2
CCOc1ccc(NC(=O)CSC2=C(C#N)C(c3ccc4c(c3)OCO4)CC(=O)N2)cc1 (stereo not drawn)	26.5
COc1ccc(NC(=O)NCCCCc2ccccc2)c(OC)c1	16.3
COC(=O)c1cccc(Oc2nc3c(c(=O)n(C)c(=O)n3C)n2Cc2ccc(C)cc2)c1	10.5

Additional results:
structure	OX1R antag
Cc1ccc(CNC(=O)CCS(=O)(=O)c2cc3c(cc2Cl)NC(=O)CO3)cc1	3.2
O=C(Nc1ccc(Br)cn1)c1cccc2ccccc12	11.4
CS(=O)(=O)N(CC(=O)NCC1CCCO1)c1cc(Cl)cc(Cl)c1 (stereo not drawn)	-1.5
CCOC(=O)Cc1nnc(Nc2cc(C)ccc2C)c2ccccc12	22.7
Cc1c(C#N)c(SCC(N)=O)nc2c1CCCC2	4.2
CC1=C(C(=O)OCc2ccccc2)C(c2ccc(C(C)(C)C)cc2)NC(=O)N1CCCCCC(=O)O (stereo not drawn)	22.7
CCOC(=O)c1sc(NC(=O)Cc2ccc(C)cc2)nc1C	22.3
C#CCn1c(=NC(=O)c2ccc(S(=O)(=O)N3CCc4ccccc4C3)cc2)sc2cc(S(N)(=O)=O)ccc21	19.3
O=C(NCc1ccccn1)C(=O)NN=C1CCCCCCCCCCC1	17.7
Cc1ccc(N2CC(C(=O)Nc3ccc(S(=O)(=O)Nc4nccs4)cc3)CC2=O)cc1 (stereo not drawn)	2.2
O=C(CC1C(=O)NCCN1C(=O)Nc1ccccc1)Nc1ccc(F)cc1 (stereo not drawn)	0.8
CCc1ccc(-c2cc(C(=O)N3N=C(C(F)F)CC3(O)C(F)F)c3ccccc3n2)cc1 (stereo not drawn)	31.6
CCC1CCCCN1CCCNC(=O)CN1C(=O)c2cccnc2Oc2ccc(C)cc21 (stereo not drawn)	23.6
Cc1[nH]nc2c1C(c1ccc(-c3ccccc3C#N)o1)C(C#N)=C(N)O2 (stereo not drawn)	4.6
O=C(N/N=C/c1cccnc1)c1ccccc1Cl	6.1
Cc1ccc(C(=O)NS(=O)(=O)c2ccc(C)cc2)cc1	16.7
CC(C)c1ccc(N(CC(=O)NCc2cccnc2)S(=O)(=O)c2ccccc2)cc1	13.8
O=C(O)c1cc(S(=O)(=O)NCCOc2ccccc2)ccc1Cl	3.3
CN(CCOc1ccc(CC2SC(=O)NC2=O)cc1)c1ccccn1 (stereo not drawn)	27.2&26.1
CCN(C(=O)c1ccco1)c1nnc(-c2ccc(OC)cc2)s1	50.5
COc1ccc(NC(=O)CN(C)C(=O)c2c(C)nn(Cc3ccc(C)cc3)c2Cl)cc1	4.2
Cc1cc(C)c(S(=O)(=O)N2CCCC(C(=O)NCc3cccnc3)C2)c(C)c1 (stereo not drawn)	22.7
COc1ccc(-c2nc(C#N)c(N3CC(C)OC(C)C3)o2)cc1OC (stereo not drawn)	10.1
COC(=O)c1cc(NC(=O)Cn2c(=O)cnc3ccccc32)cc(C(=O)OC)c1	26.0
CCOC(=O)Cn1c(C)c(C#N)c2ccccc21	34.6

Later entries.
structure	OX1R antag
COCCn1c(=O)[nH]c2cc(C(=O)N3CCN(c4cccc(C)c4C)CC3)ccc2c1=O	11.0
COC(=O)c1ccc(NC(=O)C2C3C=CC(C3)C2C(=O)O)cc1 (stereo not drawn)	-0.4
Cc1cc(C)nc(SCc2nnc(SCC(=O)N3CCOCC3)o2)n1	16.3
COCCCn1c(SCC(=O)Nc2cccc(C)n2)nnc1-c1ccco1	16.0
O=C(O)C1Cc2ccccc2CN1C(=O)COc1ccc(Br)cc1 (stereo not drawn)	15.7
CCC(=O)N(CC(=O)Nc1sc(C)c(C)c1C(N)=O)C1CCCCC1	7.5
COc1cccc2c1C(=O)CC2NC(=O)C(F)(F)F (stereo not drawn)	0.7
COCC1CCCCN1C(=O)c1ccc2oc(CCc3ccccc3)nc2c1 (stereo not drawn)	9.4
Cc1ccccc1OCC(=O)Nc1ccc(N2CCOCC2)cc1N1CCOCC1	8.0
CN(CCCOc1ccccc1Br)Cc1ccccc1	13.5
CC1(C)Nc2ccccc2C(=O)N1NC(=O)c1ccccc1	6.4
CCn1cc(C(=O)NN)c(=O)c2cc(F)c(N3CCOCC3)cc21	-3.5
Cc1ccc(C)c(N2CCN(C(=O)CC3Sc4ccccc4NC3=O)CC2)c1 (stereo not drawn)	22.2
CCN(C(=O)COC(=O)CCC(=O)c1cccs1)c1c(N)n(Cc2ccccc2)c(=O)[nH]c1=O	8.1
Cc1cccn2c(=O)c3cc(S(=O)(=O)c4ccc(Br)cc4)c(=N)n(C4CCCCC4)c3nc12	11.5
CC(C)(C)NC(=O)C(=O)NNC(=O)c1ccc(C(C)(C)C)cc1	22.0
O=[N+]([O-])c1cc(S(=O)(=O)Nc2ccccc2)ccc1-n1nnc2ccccc21	51.5
CCn1cc(C(=O)NCc2ccc(Cl)cc2)c(=O)c2cc(S(=O)(=O)N(C)C)ccc21	20.7
COc1ccc(-c2cc3c(=O)n(CC(=O)Nc4ccc(C(C)=O)cc4)ncn3n2)cc1	12.1
Cc1cc(C)c(OCC(=O)OCC(=O)N(C)C2CCS(=O)(=O)C2)c(C)c1 (stereo not drawn)	12.5
Cc1ccccc1-c1nnc2c3ccccc3c(C)nn12	19.6
Oc1c(C(c2ccccc2)N2CCN(Cc3ccccc3)CC2)sc2ncnn12 (stereo not drawn)	11.3
Cc1ccc(C(=O)O)cc1NC(=S)NC(=O)Cc1ccccc1	19.5
C#CCn1ccc(O)c(Cc2c(F)cccc2Cl)c1=O	-0.2
CCC(C)N(C(=O)Cn1c(Cl)nc2c1c(=O)n(C)c(=O)n2C)C1CCS(=O)(=O)C1 (stereo not drawn)	9.0

(cont.)
structure	OX1R antag
Cc1cc2cc(C#N)c(SCC(=O)Nc3nonc3C)nc2cc1C	12.5
COc1ccc(CCNC(=O)CSc2nc(-c3ccco3)cc(C(F)(F)F)n2)cc1	13.3
CCc1cc2c(=O)n(-c3ccc(C)cc3)cnc2s1	20.1
CCS(=O)(=O)N1CCCC(C(=O)c2ccc(OC)cc2C)C1 (stereo not drawn)	32.8
O=c1c2cn[nH]c2nc(SCc2cc(=O)n3cc(Br)ccc3n2)n1-c1ccc(Br)cc1	13.3
COCC(C)NCc1ccc(OC)c(Br)c1 (stereo not drawn)	3.1
CCc1sc(-c2ccccc2)nc1C(=O)OC	3.4
CC(C)(C)c1cc(NS(=O)(=O)c2ccc3c(c2)OCCO3)on1	2.6
CC1(C)Cc2ccccc2-c2nc(-c3ccccc3)oc(=O)c21	29.6
CN1CC(=O)Nc2ccc(F)cc2C1=O	4.7
O=C(O)c1ccc(/C=C2\SC(=Nc3ccccc3)N(c3ccccc3)C2=O)cc1	7.5
Cc1cc2cc(C)c3nnc(SCC(=O)NCc4ccco4)n3c2cc1C	4.8
Cc1ccccc1NC(=O)CC1SCCNC1=O (stereo not drawn)	11.6
COc1ccc(OCc2nnnn2-c2ccccc2)cc1	8.4
O=[N+]([O-])c1cccc(-c2nnn(C34CC5CC(CC(C5)C3)C4)n2)c1	15.3
COc1ccc(NC(=O)CN(C)CC(=O)Nc2ccccc2SC)cc1Cl	11.2
CC(C)COC(=O)c1nnsc1NC(=O)Nc1ccccc1	7.9
CCOc1c(C(=O)CC)cc2c(C)cc(=O)oc2c1C	5.9
COc1cccc(CNC(=O)COC(=O)c2cc(Br)c(Br)s2)c1	4.0
CC1CC(C)CN(S(=O)(=O)c2ccc3c(c2)CC(C)N3C(=O)C2CCC2)C1 (stereo not drawn)	21.2
COC(=O)[C@@H]1C[C@H]2CC[C@H](O)C[C@H]2N1Cc1ccccc1OC(=O)c1cccs1	12.2
O=C(Nc1ccccc1)c1nc2ccccc2s1	35.8
CCC(CC)C(=O)Nc1cccc(C(=O)N2CCCC2)c1	8.4
O=C(CCCOc1ccccc1)Nc1ccccc1C(F)(F)F	4.2
COc1ccc(C(=O)NC(C(=O)NCC2CCCO2)C(C)C)cc1 (stereo not drawn)	5.2

Continuation.
structure	OX1R antag
CC(=O)c1cccc(NC(=O)CNC(=O)c2sc3ccccc3c2Cl)c1	19.2
Clc1ccc(C2CC(c3cccs3)n3ncnc3N2)c(Cl)c1 (stereo not drawn)	8.3
Cc1nc(NC(=O)COC(=O)c2ccc(S(=O)(=O)N3CCc4ccccc4C3)cc2)c(Cl)cc1Cl	7.2
CC(C)(C)NC(=O)N1CCCC(C(=O)c2cccc(Cl)c2)C1 (stereo not drawn)	11.7
Cn1nc(-c2ccc(C(=O)NC3CCCCC3)cc2)c2ccccc2c1=O	13.4
COc1cc2c(cc1NC(=O)CN(C)Cc1nc3ccccc3c(=O)[nH]1)oc1ccccc12	5.3
COC(=O)C1C(c2ccccc2)C(C(=O)N2CCN(C)CC2)C1c1ccccc1 (stereo not drawn)	3.9
CSCCC(NS(=O)(=O)c1ccccc1F)C(=O)NCC(c1ccco1)N(C)C (stereo not drawn)	5.6
CCOC(=O)c1ccc2c(c1)n(CCO)c(C)[n+]2CC	4.0
COc1cc(O)c(C(CC(=O)N2CCCC2)c2ccc3c(c2)OCO3)c(OC)c1 (stereo not drawn)	32.4
COc1ccc(/C=C(\C#N)C(=O)NC(C)c2ccccc2)cc1O (stereo not drawn)	29.1
COc1ccc(-n2c(SCC(=O)NCC3CCCO3)nc3ccccc32)cc1 (stereo not drawn)	16.9
CCOC(=O)C1CCN(Cc2ccc(F)c(Br)c2)CC1	12.4
CC(=O)Oc1oc(-c2ccccc2)nc1C=Nc1ccc(N(C)C)cc1	1.8
COc1ccc(C(=O)/C(=C\N(C)C)n2nc(C)cc2C)cc1	29.6
CCc1cccc(NC(=O)C2CCCC2)c1	11.2
COc1ccc([N+](=O)[O-])cc1NC1CCCCC1	-0.8
CN1N=C(C(=O)N2CCCC(C(=O)c3cccc(C(F)(F)F)c3)C2)CCC1=O (stereo not drawn)	13.0
O=C(c1ccccc1)c1ccc2nc(Nc3ccccc3)c3nncn3c2c1	25.0
O=C(CCSc1ccccc1)Nc1nc2c(s1)COc1ccccc1-2	32.2
N#Cc1ccccc1NC(=O)COC(=O)c1ccc(S(=O)(=O)N2CCCC2)cc1	14.1
COc1ccccc1CCNS(=O)(=O)c1ccc(C(=O)O)n1C	-0.5
CCc1ccccc1NC(=O)CCN1C(=O)C2CC=CCC2C1=O (stereo not drawn)	11.6
Cc1ccc(S(=O)(=O)N2CCCCC2)cc1NC(=O)CN1C(=O)c2ccccc2S1(=O)=O	-5.7
CC(NC(N)=O)C(=O)OCc1ccc(Cl)cc1Cl (stereo not drawn)	4.7
CSc1ccccc1NC(=O)CSc1nnc(COc2ccccc2)o1	1.1
COC(=O)[C@]1(Cc2ccccc2)N[C@H](CN(C)C(=O)Nc2ccc(C(F)(F)F)cc2)[C@@H]2C(=O)N(Cc3ccccc3)C(=O)[C@@H]21	7.0
CCOc1ccc(N(CC(=O)NCc2ccccc2Cl)S(=O)(=O)c2c(C)[nH]c(=O)[nH]c2=O)cc1	13.0

Another view of some results above.
canonical_smiles: CCOC(=O)C1CCN(Cc2ccc(F)c(Br)c2)CC1
  OX1R antag: 12.4

canonical_smiles: CC(=O)Oc1oc(-c2ccccc2)nc1C=Nc1ccc(N(C)C)cc1
  OX1R antag: 1.8

canonical_smiles: COc1ccc(C(=O)/C(=C\N(C)C)n2nc(C)cc2C)cc1
  OX1R antag: 29.6

canonical_smiles: CCc1cccc(NC(=O)C2CCCC2)c1
  OX1R antag: 11.2
